NPYLR7 agonist – activates Aedes aegypti NPYLR7 receptor | 270,000 compounds, 0.15% hits | AID 1259423 | activation, % at 10 µM | HEK293T NPYLR7/Galpha15, GCaMP6s calcium fluorescence; in the data active = activation above about 40%;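 also: 0% = vehicle and 100% = reference agonist at the receptor; some compounds past the cut are filed as inactive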
NPYLR7 agonist max-min – second read-out of NPYLR7 agonist, no call of its own (marks repeat the call); activation, %; measured here: Max-Min RFU normalised activation; some inactives read as strong as hits;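 span of the calcium signal over five minutes; 0% = vehicle and 100% = native peptide agonist; compound fluorescence can raise it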
Numbers without * were called inactive; & = joins results of further samples. The list is partial; rates above refer to the full screens.

SMILES | NPYLR7 agonist | NPYLR7 agonist max-min
CCc1ccc(-c2ccc(SCC(=O)NC3CCCC3)nn2)cc1 | 10 | 9
CC(C)CN1C(=O)N(Cc2ccccc2)C2(CCN(CCc3ccccc3)CC2)C1=O | 19 | 8
Clc1ccc(-c2noc(CN3CCCN(c4ncccn4)CC3)n2)cc1 | -4 | -7
COCCn1c(O)c(C=NCCCC(=O)OC)c(=O)[nH]c1=S | -2 | -7
Cc1coc(-c2cccc(NC(=O)Cc3csc(C)n3)c2)n1 | -6 | -9
Cc1cc(C)n(Cc2ccc(C(=O)N(C)Cc3snnc3C)cc2)n1 | 22 | 11
CN(C)C(CN)c1cnn(C)c1 (stereo not given) | -2 | -5
COc1ncnc2ccc(-c3ccccc3CN3CCOCC3)cc12 | 2 | 1
O=C(NCCc1ccccc1Cl)c1sc2cc(F)ccc2c1Cl | 2 | 8
CSc1ccc(CN2CCC2(C)C(=O)Nc2cnc3ccccc3c2)cc1 (stereo not given) | 0 | -2
COc1cccc(-n2nnc3c(N4CCN(C(=O)C56CC7CC(CC(C7)C5)C6)CC4)ncnc32)c1 | -9 | -17
COCC1(C(=O)N(C)C(C)c2ccon2)CCC1 (stereo not given) | 6 | 2
Cc1cc(C)n(-c2ccc(C(=O)NN(C)c3ccccc3)cc2)n1 | -1 | -5
CCCCC(=O)N(C)c1c(CC)nc2c(OCC=C(C)C)cccn12 | 0 | 3
Cc1ccc2c(c1)Nc1nc3nonc3nc1N2 | 0 | 0
C/C(C(=O)N1CCOCC1)=C(/C)c1nc2ccc(Cl)cc2[nH]1 | 7 | 11
C=CCn1c(SCc2nc3cc(Cl)ccc3c(=O)[nH]2)nc2cc(Cl)ccc2c1=O | -2 | -7
CC(C)(C)NC(=O)CSc1nc2ccccc2c(=O)n1Nc1ccccc1 | 4 | 1
O=C(Nc1nc(CC(=O)N2CCc3ccccc32)cs1)c1ccc(=O)[nH]c1 | 1 | 4
COc1ccc(-c2cc(C(=O)N3CCN(c4cccc(Cl)c4)CC3)n(-c3ccc(C)cc3C)n2)c(OC)c1 | -2 | 6
CCC(=O)Nc1nnc(CC(=O)N/N=C\c2ccc(O)cc2)s1 | 1 | -2
CONC(=O)c1cc2ccc(OC(F)(F)F)cc2[nH]1 | 0 | 14
Cc1cc(C)n(CCP(=O)(c2ccccc2)c2ccccc2)n1 | 6 | 7
COc1ccc(Cl)cc1NC(=O)c1cc(=O)c(OCc2ccc(F)cc2)c[nH]1 | 1 | 0
COc1ccc(C(=O)N2CCC(C(NC(=O)c3ccc(C)cc3)C(=O)NCc3ccco3)CC2)cc1 (stereo not given) | -3 | 4

The listing continues:
SMILES | NPYLR7 agonist | NPYLR7 agonist max-min
O=C(c1cc(-c2ccccc2F)nn1-c1cccc(Cl)c1)N1CCN(Cc2ccccc2)CC1 | -2 | 3
O=C(CC(c1ccccc1)c1ccccc1F)N1CCN(c2ccncc2)CC1 (stereo not given) | 12 | 6
CC(C)c1ccc(/C=N\N=C(/c2ccccc2)C23CN4CN(CN(C4)C2)C3)cc1 | -1 | -2
COCCN(Cc1ccc(F)cc1Cl)C(=O)c1cnc(C)cn1 | 5 | 4
COC[C@@]12CN(C(C)=O)C[C@@H]1C(C)(C)COc1ccc(OC)cc12 | 4 | 13
Cc1nc(CC(=O)NCc2ccccc2-n2ccnc2C)c(C)s1 | 2 | 0
CSc1cccc(NC(=O)c2cc(=O)c(OCc3ccc(F)cc3)c[nH]2)c1 | -3 | -2
O=C(NCc1ccccc1Cl)c1ccc(-c2ccc(F)cc2)s1 | 6 | 4
Cn1c(=O)c2c(-c3ccc(F)cc3)c(NCCc3ccccc3)oc2n(C)c1=O | -2 | -1
COC(=O)CC(=O)N1Cc2c(-c3cccc(C)c3)nc(N)nc2C1C (stereo not given) | 18 | 6
CN(C)c1ncnc2c1CCN(C(=O)C1(c3ccccc3)CC1)C2 | 4 | 3
CCOC(CCl)S(=NS(=O)(=O)c1ccc(C)cc1)c1ccccc1[N+](=O)[O-] (stereo not given) | -2 | -8
C=CCNC(=O)C(NC(=O)c1ccc2c(c1)OCO2)C1CCN(C(=O)c2ccco2)CC1 (stereo not given) | 1 | 6
CC1Cc2cc(-c3nccn3CCN3CCNC3=O)ccc2O1 (stereo not given) | 0 | -4
CC1=C(C(=O)NCCc2cccc(C(N)=O)c2)Cc2ccccc2O1 | 1 | 0
CC(=O)Nc1sc(/C(C#N)=C/c2cccc(O)c2)nc1-c1ccc(C)cc1 | 2 | 12
CN(C)CC1CN(CC(=O)NCCc2ccc(Cl)cc2)CCO1 (stereo not given) | 8 | 5
COc1ccc(C2CC(c3ccc(OC)cc3OC)=NN2C(=O)CN2CCc3ccccc3C2)cc1 (stereo not given) | -5 | -3
CN(C)CCCN1c2ccccc2Sc2ccc(Cl)cc21 | 2&-7&13&0&0 | 1&-10&6&-5&0
Cc1nn(C)c(Cl)c1COC(=O)c1ccc(S(C)(=O)=O)cc1 | -4 | -8
CC(Sc1nncs1)C(=O)N(C)C1CCC(c2ccccc2)CC1 (stereo not given) | 4 | 3
O=C(NC(c1ccccc1)C1CC1)N1CCN(S(=O)(=O)c2cccc(C(F)(F)F)c2)CC1 (stereo not given) | 2 | 0
COc1ccccc1Oc1cc(C)nc(SCc2cccc([N+](=O)[O-])c2)n1 | -11 | -11
C=CCN(CC=C)C(=O)c1cc(-c2cccs2)nc2cc(C)c(C)cc12 | 5 | 3
CCc1ccc(NC(=O)c2cccn(OCc3cccc(Cl)c3)c2=O)cc1 | 19 | 26

New compounds follow
SMILES | NPYLR7 agonist | NPYLR7 agonist max-min
COc1ccc2c(=O)c3c(oc2c1)C(=O)N(c1nccs1)C3c1cccnc1 (stereo not given) | 5 | 2
Cc1cc(O)ccc1Nc1cc(-c2ccccc2N(C)C)ncn1 | 0 | -2
COC(=O)C(c1cc(F)ccc1F)N(C)C(=O)c1csnn1 (stereo not given) | 3 | 6
COc1ccccc1Oc1ncccc1CNC(=O)c1ccc2ncccc2c1 | 0 | -3
CN(Cc1ccccc1)C(=O)c1ccc(N2CCCC2c2ccccn2)nc1 (stereo not given) | 3 | 3
Fc1cccc(Cl)c1Cc1nc(-c2cccc(C(F)(F)F)c2)no1 | 0 | -2
COc1cccc(CNC(=O)C2CCN(C(=O)[C@@H]3CCCN3C(=O)Nc3ccc4c(c3)CCC4)CC2)c1 | 11 | 18
COC(=O)CN(Cc1ccccc1C)C(=O)C(C)N1CCOCC1 (stereo not given) | 2 | 0
CC(=O)c1ccc(OCC(=O)NC(c2ccccc2F)c2nccn2C)cc1 (stereo not given) | -6 | 3
Cc1ccc2[nH]c(C(=O)N(C)Cc3ccc(Br)o3)cc2c1 | 3 | 4
CCCOc1ccccc1C1NC(=O)NC(C)=C1C(=O)OCCc1ccccc1 (stereo not given) | 5 | 4
Cc1ncc([N+](=O)[O-])n1CCN1C(=O)c2c(C(C)C)nc3ccc(F)cc3c2C1=O | 1 | 1
COc1ccc(OC)c(NC(=O)C2(C)CCN2C(=O)C(C)(C)c2ccccc2)c1 (stereo not given) | 8 | 7
COc1ccc2nc3n[nH]c(N)c3cc2c1 | 11 | 17
CCOC(=O)Cc1cc(=O)n2[nH]c(COC)c(-c3ccc(Cl)cc3)c2n1 | -17 | -22
CCC(CC)Nc1nc2cc(C)nn2c2ccccc12 | 2&0 | -3&35
CC(C)CC(CNc1ccc(S(=O)(=O)N2CCCCC2)cc1[N+](=O)[O-])N1CCOCC1 (stereo not given) | 1 | 0
CC(C)C(OC(=O)C1CCC(=O)NC1)C(=O)Nc1cccc2ncccc12 (stereo not given) | 0 | 0
CC1CCNc2cc(C(F)(F)F)ccc2S1 (stereo not given) | -4 | -5
Cc1cc(C)c(CNC(=O)C=Cc2cccs2)c(=O)[nH]1 | -6 | -8
Cc1cc(Nc2ccccc2)nc(-n2cc([N+](=O)[O-])cn2)n1 | 9 | 9
CC1C(=O)N2CCCc3cc(S(=O)(=O)Nc4ccc(F)c(C(F)(F)F)c4)cc1c32 (stereo not given) | 5 | 2
COc1cc(NC(=O)Cn2nc([N+](=O)[O-])c(Cl)c2C)cc([N+](=O)[O-])c1 | -3 | -11
Cc1cc(-n2cccn2)ccc1C1CC(=O)Nc2n[nH]c(C3CCC3)c21 (stereo not given) | 18 | 14
COc1ccc(-c2nc(CC(N)=O)sc2C)cc1 | 2 | 1

5 records drawn at random from the list so far, as already listed:
SMILES | NPYLR7 agonist | NPYLR7 agonist max-min
CC1C(=O)N2CCCc3cc(S(=O)(=O)Nc4ccc(F)c(C(F)(F)F)c4)cc1c32 (stereo not given) | 5 | 2
Cc1cc(Nc2ccccc2)nc(-n2cc([N+](=O)[O-])cn2)n1 | 9 | 9
COc1cc(NC(=O)Cn2nc([N+](=O)[O-])c(Cl)c2C)cc([N+](=O)[O-])c1 | -3 | -11
CCOC(=O)Cc1cc(=O)n2[nH]c(COC)c(-c3ccc(Cl)cc3)c2n1 | -17 | -22
CN(Cc1ccccc1)C(=O)c1ccc(N2CCCC2c2ccccn2)nc1 (stereo not given) | 3 | 3

The list continues.
SMILES | NPYLR7 agonist | NPYLR7 agonist max-min
FC(F)(F)Cn1c(N2CCOCC2)n[nH]c1=S | -3 | -1
COCCN1C(=O)/C(=C/c2ccc3c(c2)OCO3)SC1=S | -1 | -5
O=C(CN1CCCC1C(=O)Nc1ccccc1)NCC(F)(F)F (stereo not given) | 5 | 2
Fc1ccc(C=NN2CCOCC2)c(F)c1 | 11 | 13
Cc1cc(C=C(C#N)C(=O)c2cc(C)n(C3CCCC3)c2C)c(C)n1C1CC1 | 0 | -1
N#Cc1ccc(C(=O)N2CCCN(Cc3cc(=O)c(OCc4ccc(C(F)(F)F)cc4)co3)CC2)cc1 | -2 | 6
CCOC(=O)c1ccccc1Nc1cn(C(C)=O)c2ccccc12 | 0 | -4
COc1ccc(-c2nnc(SCC3CCOCO3)o2)cc1OC (stereo not given) | 8 | 7
CN(CC(=O)NC(C)(C)C)C(=O)c1ccc(S(=O)(=O)N2CCOCC2)cc1 | -1 | 0
CC(=O)c1ccc(N2CC[C@@H](N3CCN(c4ccccc4F)CC3)[C@H](O)C2)nc1 | 9 | 5
NC1=NC2(C(=O)Nc3cc4c(cc32)OCCO4)n2c(nc3ccccc32)N1 (stereo not given) | 5 | 0
O=C(CSc1nnc(C2(c3ccc(Cl)cc3)CCC2)o1)Nc1ccc2c(c1)OCO2 | -9 | -11
C[N+]1=C(/C=C/c2ccccc2F)C(C)(C)c2ccccc21 | -1 | 31
C=CCN(Cc1nccn1Cc1ccccc1F)C(=O)c1ccc(F)cc1 | 4 | 5
CCOc1ccc(C(C2Sc3nc(CC)nn3C2=O)N2CCCC(C)C2)cc1 (stereo not given) | -3 | 26
C=CCOC(=O)C1=C(C)N(C)C(=O)NC1c1cc(Br)c(O)c(OC)c1 (stereo not given) | 11 | 15
CCC(CC)C(=O)N1CCCc2c1[nH]c1ccccc21 | 5 | 7
COc1ccc(Br)cc1/C=N\NC(=O)CSc1nc2ccccc2n1Cc1ccccc1 | 7 | 12
c1ccn2cc(CCn3cnnc3)nc2c1 | 10 | 10
CC1CN(CCc2ccccc2)c2nc3c(c(=O)n(CC(=O)OCc4ccccc4)c(=O)n3C)n2C1 (stereo not given) | 10 | 9
Cn1c(N)c(C(=O)CSc2nnc(-c3cccs3)n2C2CC2)c(=O)[nH]c1=O | 3 | 14
O=C(Nc1ccccc1F)N1CCN(CC=Cc2ccccc2)CC1 | 25 | 20
Cc1cccc2cc(C(=O)N3CCc4c(nc(N(C)C)[nH]c4=O)C3)oc12 | 0 | 0
O=C(c1ccc2oc(CCc3ccccc3)nc2c1)N1CC=C(c2ccccc2)CC1 | 19 | 11
Cc1ccc(-c2nc(N3CCN(c4ncccn4)CC3)c3ccccc3n2)cc1 | 2 | 0

Copied from the list:
NPYLR7 agonist max-min with Cn1c(N)c(C(=O)CSc2nnc(-c3cccs3)n2C2CC2)c(=O)[nH]c1=O is entered as 14
NPYLR7 agonist with COc1ccc(-c2nnc(SCC3CCOCO3)o2)cc1OC (stereo not given) is entered as 8
NPYLR7 agonist max-min with COc1ccc(Br)cc1/C=N\NC(=O)CSc1nc2ccccc2n1Cc1ccccc1 is entered as 12
NPYLR7 agonist max-min with Cc1ccc(-c2nc(N3CCN(c4ncccn4)CC3)c3ccccc3n2)cc1 is entered as 0

(next part)
SMILES | NPYLR7 agonist | NPYLR7 agonist max-min
CCOc1ccccc1/C=C1N=C(/C=C/c2ccc(Cl)cc2)OC/1=O | 5 | 4
CC(=O)Nc1ccc(NC(=O)CCCc2ccc(Cl)cc2)c(C(F)(F)F)c1 | 5 | 4
O=S(=O)(c1ccccc1C(F)(F)F)N1CCN(c2nc3nccc(-c4cccs4)n3n2)CC1 | 8 | 3
O=C(c1ccccc1Cl)N1CCN(c2nc(-c3ccccc3)c3cc(Br)ccc3n2)CC1 | -7 | -1
CCn1c(C2CCN(C(=O)Cc3[nH]nc4ccccc34)CC2)n[nH]c1=O | 0 | 0
Cc1ccc(OCc2cc(C(=O)N(CCO)Cc3cccs3)no2)cc1C | 1 | -1
Cc1cc(C(F)(F)F)n2nc(C(=O)N(C)Cc3nc(C)no3)cc2n1 | -7 | -9

Entries of single compounds from above:
O=C(c1ccccc1Cl)N1CCN(c2nc(-c3ccccc3)c3cc(Br)ccc3n2)CC1 is listed with NPYLR7 agonist: -7; NPYLR7 agonist max-min: -1
CCn1c(C2CCN(C(=O)Cc3[nH]nc4ccccc34)CC2)n[nH]c1=O is listed with NPYLR7 agonist: 0; NPYLR7 agonist max-min: 0

Another view of 4 compounds above.
C=CCNC(=O)C(NC(=O)c1ccc2c(c1)OCO2)C1CCN(C(=O)c2ccco2)CC1 (stereo not given)
  NPYLR7 agonist = 1
  NPYLR7 agonist max-min = 6

CC1Cc2cc(-c3nccn3CCN3CCNC3=O)ccc2O1 (stereo not given)
  NPYLR7 agonist = 0
  NPYLR7 agonist max-min = -4

CC1=C(C(=O)NCCc2cccc(C(N)=O)c2)Cc2ccccc2O1
  NPYLR7 agonist = 1
  NPYLR7 agonist max-min = 0

CC(=O)Nc1sc(/C(C#N)=C/c2cccc(O)c2)nc1-c1ccc(C)cc1
  NPYLR7 agonist = 2
  NPYLR7 agonist max-min = 12

High-throughput results from PubChem.
